Screening data as filed in PubChem.
Vaccinia mCherry = vaccinia inhibition (mCherry reporter); Vaccinia virus mCherry reporter infection, fluorescence; about a quarter of the inactives have no number; Potency, µM (highest dose often 36.5 µM), for inactives: at the top dose activity change, negative = inhibition, usual class: inhibitors; hit rate 0.63% among 310,000; AID 720579; active = well fitted inhibition curve with a large enough effect; inconclusive = small, poorly fitted or top-dose-only effect; inactive = no such curve, though single readings can be large or run the other way; tested in A549 cells; note: nearly all actives have a fitted effect of over 35% in size; inactives centre near -10
Vaccinia Venus = inhibitors of vaccinia virus (Venus reporter); Vaccinia virus Venus reporter expression, fluorescence; Potency, µM (highest dose often 36.5 µM), for inactives: top-dose activity change, negative = inhibition, most hits filed as inhibitors; hit rate 0.46% among 330,000; AID 720580; active means well fitted inhibition curve with a large enough effect; inconclusive means small, poorly fitted or top-dose-only effect; inactive means no such curve, though single readings can be large or run the other way; tested in A549 cells; note: nearly all actives have a fitted effect of over 30% in size; inactives centre near -10
* marks the source's active call; other numbers are inactive results; i = inactive; ? = inconclusive; / = no result given; & = joins results of further samples; [ ] = dose if it differs, or a comment. % is set by controls: 0 for no effect and ±100 for the full control effect; potency is the fitted concentration of half-maximal effect.

Molecule | Vaccinia mCherry | Vaccinia Venus
CCC(C)NC(=O)Cn1cccc1C(=O)c1ccccc1 (centres undefined) | -12% | -7%
COc1ccc(NC(=O)CN(C)C(C)C(=O)NC(=O)NC2CCCCC2)cc1 (centres undefined) | -12% | -19%
COc1ccc(Cc2nc3ccc(C(=O)N4CCOCC4)cc3o2)cc1 | -20% | -8%
O=C(Nc1nnc(-c2ccc3c(c2)CCCC3)o1)C1COc2ccccc2O1 (centres undefined) | i | -10%
N#Cc1ccccc1N=Cc1ccc(Br)cc1 | -14% | -10%
CCc1ccccc1OCC(=O)OCC(=O)N1CC(=O)Nc2ccccc21 | -10% | -12%
Cc1cccc(-n2c(CNC(=O)c3cccc(F)c3)nnc2SCC(=O)Nc2ccccc2F)c1 | -8% | -8%
CCN1C(=O)[C@H]2[C@H]3CN=C(SCC(=O)c4ccccc4)N3[C@@](CC)(C(=O)OC)[C@H]2C1=O | i | -10%

The list continues.
Molecule | Vaccinia mCherry | Vaccinia Venus
CCOc1ccc2oc(C(=O)N(CC)CC(=O)Nc3ccc(NC(C)=O)cc3)c(C)c2c1 | ? | -22%
CCCCCCC(=O)N/N=C/c1c(O)n(CCc2ccccc2)c(=O)[nH]c1=O | -11%[7.34 µM] | -3%[7.34 µM]
CCN(CC(=O)Nc1c(F)cccc1F)C(=O)c1cnccn1 | -12% | -10%
CCCCOc1c(Br)cc(CNCCCN2CCOCC2)cc1OC | ? | -12%
O=C1C2CCCN2C(c2cccnc2)N1c1ccc(Cl)cc1 (centres undefined) | -17% | -1%
O=C(NC1CCCCC1)c1ccc(Br)o1 | -17% | -7%
COc1cc(N/N=C/c2ccc(N(C)C)cc2)ncn1 | -7% | -10%
COC(OC)c1ccnc(-c2ccc(OC(=O)c3cccs3)cc2)n1 | i | -4%

(cont.)
Molecule | Vaccinia mCherry | Vaccinia Venus
O=C(C1CCCCC1)N1C[C@H](n2cc(C3CC3)nn2)[C@@H](O)C[C@@H]1c1ccc(Cl)cc1 | i | -5%
O=C(c1ccc(S(=O)(=O)c2ccccc2Cl)c([N+](=O)[O-])c1)N1CCCCCC1 | -13% | -25%
CC1CCN(CCCNC(=O)c2ccc3c(Cl)c4c(nc3c2)CCCC4)CC1 | -16% | 0%
CC(C)COc1ccc(CNC(=S)NCc2ccccc2)cc1 | -24% | -23%
O=P(/C=C1\OCc2ccccc21)(Oc1ccccc1)Oc1ccccc1 | -22% | -10%
O=C(Nc1ccccc1C(=O)N/N=C/c1ccc(F)cc1)c1ccccc1Br | -9% | -8%
Cc1ccc(C)c(S(=O)(=O)N2CCN(C(=O)CCNC(=O)c3ccc(Br)cc3)CC2)c1 | ? | ?
Cc1ccc(N2CC(C(=O)Nc3nnc(SCC(=O)N4CCOCC4)s3)CC2=O)cc1 (centres undefined) | -11% | 4%

The listing continues.
Molecule | Vaccinia mCherry | Vaccinia Venus
CC(=O)N1N=C(c2cccs2)CC1c1cccs1 (centres undefined) | i | -14%
C[C@H](CO)N1C[C@H](C)[C@@H](CN(C)Cc2ccc(-c3ccccc3)cc2)Oc2ccc(NC(=O)Cn3cnnn3)cc2C1=O | ? | -26%
CCc1ccc(NC(=O)C/C(C)=N/NC(=O)COc2ccccc2C)cc1 | -28% | -6%
CCc1nc2ccccc2c(C(=O)OCC(=O)NCCCN2CCCC2=O)c1C | -14% | 6%
NC(=O)c1ccc(NC(=O)c2cccn(Cc3ccccc3)c2=O)cc1 | -6% | -18%
Cc1ccc(C(=O)NC2CCN(C(=O)Nc3ccccc3)CC2)cc1 | -13% | -7%
CCOc1cc(CNC(C)(C)CO)cc(Br)c1OCc1ccc(Cl)cc1Cl | ? | ?
Cc1csc(NC(=O)c2cc(C)oc2C)n1 | / | -28%

Next part
Molecule | Vaccinia mCherry | Vaccinia Venus
COc1ccccc1CC(NC(C)=O)C(=O)NC1CCN(C(=O)Nc2cccc(F)c2)CC1 (centres undefined) | 9% | 4%
COc1ccc(Cl)cc1-c1cc(C(=O)NCc2ccccc2)[nH]n1 | -20% | -12%
Cc1ccc(-c2ccc(=O)n(Cc3cccc(Br)c3)n2)cc1 | -15% | -4%
CN1C(=O)Cc2cc(S(=O)(=O)CCC(=O)Nc3ccc(F)c(Cl)c3)ccc21 | -3% | 3%
CCCC(=O)Nc1ccc(-c2nc3cc(C)c(C)cc3o2)cc1 | -18% | -18%
CCN(C(=O)CSc1nnc(-c2ccncc2)n1Cc1ccccc1)C1CCS(=O)(=O)C1 (centres undefined) | -12% | -12%
Cc1ccc[n+](C(C)C(=O)c2ccc(-c3ccccc3)cc2)c1 (centres undefined) | -5% | -29%
COc1ccccc1Cc1c(C2CCCCC2)nc2ccc(Br)cn12 | -10% | -17%

Going on with the list.
Molecule | Vaccinia mCherry | Vaccinia Venus
CCOc1ccc(CCNC(=O)CCn2c(=O)c3cccn3c3ccc(F)cc32)cc1OCC | -13% | -15%
CCNc1nc(N)nc(Oc2ccc(OCCOc3ccc(Cl)cc3Cl)nn2)n1 | -8% | 0%
CC(C)N(C(=O)CSc1cn(CC(=O)N2CCCCCC2)c2ccccc12)C(C)C | -12% | -11%
COc1cc(OC)c(Nc2nc3ccccc3c3nncn23)cc1Cl | -14% | -3%
CC(C)(C)OC(=O)N1CCC(c2c(C(=O)N3CCN(Cc4ccccc4)CC3)cnn2-c2cccc(Cl)c2)CC1 | -16% | -14%
CCN(CCCc1ccccc1)CCCc1ccccc1 | -6%&-25% | -17%&-19%
Cc1[nH]c2ccccc2c1C(=O)C(=O)N1CCN(c2ccccc2)CC1 | i | -12%
COc1ccccc1CNC(=O)c1ccc2[nH]c(C)c(C)c2c1 | -9% | -13%

Continuation:
Values in the order – Vaccinia mCherry | Vaccinia Venus
- CC(=O)Nc1ccc(NC(=O)C(NC(=O)c2ccc(Cl)cc2)C(C)C)cc1 (centres undefined)
→ i | -10%
- CC1CCCC(N2CCN(C(=O)c3ccccc3F)CC2)C1 (centres undefined)
→ -5% | -11%
- CNC(=S)N(CCc1c(C)[nH]c2ccc(Cl)cc12)Cc1cc(OC)c(OC)c(OC)c1
→ ? | ?
- COC(=O)C1=C(C)N(Cc2ccccc2)C(=NCCCCO)N[C@H]1CCc1ccccc1
→ 4% | -17%
- Cc1ccccc1CSCCNC(=O)C1CCN(S(=O)(=O)Cc2ccccc2)CC1
→ -1% | 5%
- Cc1cc2n(n1)SC(Nc1ccccc1)N2 (centres undefined)
→ -14%[1.46 µM] | -13%
- O=C(O)C1=NOC(CNC(=O)c2ccccc2Cl)C1 (centres undefined)
→ -24% | -6%
- CC(C)Oc1ccc(CNC(=O)CCC(=O)N2CC(C)Sc3ccccc32)cc1 (centres undefined)
→ -10% | -12%
- COc1ccc(S(=O)(=O)N2c3cc(C)ccc3OCC2C(C)(C)C)cc1 (centres undefined)
→ ? | ?
- OCCNc1ncnc2c1ncn2[C@H]1CN(Cc2ccc3c(c2)OCO3)C[C@@H](CO)O1
→ -6% | -2%
- CCOC(=O)C1(CCc2ccccc2)CCN(C(=O)c2cccc(C)n2)CC1
→ -1% | -13%
- Cc1cc2cc(CCNC(=O)c3ccc(C)c([N+](=O)[O-])c3)c(=O)[nH]c2cc1C
→ i | -6%
- c1ccc2c(c1)Cn1c-2nc2ccccc21
→ 0% | -5%
- CCOc1ccc(C(=O)Nc2nnc(S(=O)(=O)N(CC)c3ccccc3C)s2)cc1
→ -21% | -17%
- COc1ccc([C@H]2CC(=O)C[C@@H](CCn3cc(C)nn3)O2)cc1
→ -7% | 2%
- Cc1ccc(C(=O)OCC(=O)N2CC(C)CC(C)C2)cc1S(=O)(=O)N1CCCCC1 (centres undefined)
→ -2% | 1%
- C=C(C)Cn1c(SCC(=O)O)nc2c1c(=O)[nH]c(=O)n2C
→ 52%[activator] | 5%
- CN(Cc1cnccn1)Cc1nc(Cc2ccccc2Cl)no1
→ i | -17%
- CCCn1nnnc1NCc1ccc(C(C)C)cc1
→ 0% | -8%
- O=C(CSc1nc(-c2ccccc2)c(-c2ccccc2)o1)Nc1nncs1
→ / | -5%

Next section
Values in the order – Vaccinia mCherry | Vaccinia Venus
- C[C@H](CO)N1C[C@H](C)[C@@H](CN(C)Cc2ccc(Cl)c(Cl)c2)Oc2ccc(NC(=O)Cn3cnnn3)cc2C1=O
→ -11% | -15%
- Cc1cc(C)cc(OCc2ccc(C(=O)NC3CCOC3=O)o2)c1 (centres undefined)
→ -5% | -2%
- Brc1ccccc1-n1nnc(-c2ccnc3ccccc23)n1
→ -30% | ?
- CCCc1[nH]nc2c1C(c1cccc(OC)c1)C(C#N)=C(N)O2 (centres undefined)
→ -15% | -7%
- C=CCNC(=O)C1CC(=O)N(c2ccc(Br)cc2)C1 (centres undefined)
→ / | -28%
- CC(C)c1ccc(CN2CCSCC2)cc1
→ -5% | 3%
- Cc1ccc(-n2c([S-])c(C(=O)Nc3ccc(OC(F)F)cc3)[n+]3ccc(C(=O)NCCO)cc23)cc1C
→ i | -11%
- Cn1c(COc2ccccc2)nnc1SCC(=O)c1cccc([N+](=O)[O-])c1
→ i | -5%
- Cc1cccc(NC(=O)CN2C(=O)N/C(=C/c3ccc(C)s3)C2=O)c1
→ -3% | -7%
- CC(=O)N1CCC(N2CCN(Cc3ccc(C)cc3)C(CCO)C2)CC1 (centres undefined)
→ -5% | -9%
- CC1(C(=O)Nc2ccc3c(c2)OCCO3)CCC(=O)N1C1CC1 (centres undefined)
→ i | 5%
- Cc1nc2cc(C(=O)NCc3cccnc3)ccc2n1-c1ccc(F)cc1F
→ -4% | -7%
- Nc1nc(N)nc(-c2cccc([N+](=O)[O-])c2)n1
→ -3% | 2%
- COc1ccc(S(=O)(=O)N2CCCC(C(=O)N3CCOCC3)C2)cc1OC (centres undefined)
→ -16% | -6%
- O=C(COC(=O)c1ccc(S(=O)(=O)N2CCCC2)cc1)NCc1ccco1
→ -15% | -14%
- O=C(O)c1ccccc1Nc1ccccc1
→ -7% | -5%
- Cc1cc2nncn2c2ccccc12
→ -8% | -16%
- CN(C)c1nc(NCc2ccccc2)nc(N/N=C/c2cccc(Br)c2)n1
→ -7% | -11%
- COc1ccc(/C(CC2(O)C(=O)Nc3ccccc32)=N\O)cc1 (centres undefined)
→ -11% | -9%
- COc1cc(NS(=O)(=O)c2ccc(NS(=O)(=O)c3ccc(NC(C)=O)cc3)cc2)nc(OC)n1
→ 6% | 8%

Next part.
Values in the order – Vaccinia mCherry | Vaccinia Venus
- COc1ccccc1C(c1nnnn1CC1CCCO1)N1CCN(c2ccccc2)CC1 (centres undefined)
→ ? | -11%
- COC(=O)c1ccc(C2/C(=C(/O)c3ccc4c(c3)CC(C)O4)C(=O)C(=O)N2CCN2CCOCC2)cc1 (centres undefined)
→ i | -21%
- Cc1ccnc(NC(=O)CCC2COc3ccccc3O2)c1 (centres undefined)
→ / | ?
- CCN(CC)C(=O)Cn1c(=O)n(CCCCCC(=O)Nc2ccccc2)c(=O)c2sccc21
→ -16%&-5% | -7%&4%
- COc1ccccc1NC(=O)CSc1nc(N)c(-c2ccccc2)c(=O)[nH]1
→ i | -8%
- CC12CN3CC(C)(CN(C1)C3c1ccc(Cl)cc1)C2 (centres undefined)
→ -15% | -9%
- Fc1ccc(-n2ncc3c(N4CCN(Cc5ccccc5)CC4)ncnc32)cc1
→ -18% | -7%
- Cc1c(C(=O)NCCN2CCOCC2)oc2ccc(Br)cc12
→ -22% | -10%
- COc1ccc(C(=O)N2CCCC(Nc3ccc(F)cc3)C2)c(OC)c1 (centres undefined)
→ -5% | -4%
- Cc1ccccc1-n1c(=S)[nH]c2nc3c(cc2c1=O)COC(C)(C)C3
→ -7% | -6%
- Cc1ccccc1NNC(N)=S
→ -15% | -14%
- CC[C@@]1(C(=O)OC)N[C@H](CN(C)S(=O)(=O)c2ccc(C(C)(C)C)cc2)[C@@H]2C(=O)N(C)C(=O)[C@@H]21
→ i | -3%
- CCOC(=O)c1c(C)n(C)c2ccc(OCC(N)=O)cc12
→ ? | ?
- CC(C)=CC(=O)Nc1ccccc1C(N)=O
→ -16% | -3%
- CC(=O)Nc1ccc(/C=N/N2C(C)CCCC2C)cc1 (centres undefined)
→ i | 1%
- c1c(CC2CCCC2)nnn1C[C@H]1CC[C@@H]([C@@H]2CC[C@H](Cn3cc(CC4CCCC4)nn3)O2)O1
→ -13% | -21%
- COc1ccc(CCNC(=O)c2nc(SCc3ccccc3F)ncc2Cl)cc1OC
→ i | -25%
- CC1CCCN(C(=O)CN2C(=O)NC3(CCCCC3C)C2=O)C1 (centres undefined)
→ -5% | -3%
- Cc1ccccc1CN1[C@H](C)[C@H](c2ccccc2)OCCS1(=O)=O
→ -26% | -16%
- CCOc1cc(N2CCOCC2)c(OCC)cc1NS(=O)(=O)c1ccc(Cl)s1
→ ? | ?
- O=C(Nc1ccc(N2CCCC2)c(Cl)c1)c1ccccc1F
→ -6% | -20%
- CCOc1cc(C=C2C(=O)NC(=O)NC2=O)ccc1OCC(=O)N1CCOCC1
→ -14% | -8%

Rewritten as labelled records: entries from further up
Fc1ccc(-n2ncc3c(N4CCN(Cc5ccccc5)CC4)ncnc32)cc1
  Vaccinia mCherry: -18%; Vaccinia Venus: -7%
Cc1c(C(=O)NCCN2CCOCC2)oc2ccc(Br)cc12
  Vaccinia mCherry: -22%; Vaccinia Venus: -10%
COc1ccc(C(=O)N2CCCC(Nc3ccc(F)cc3)C2)c(OC)c1 (centres undefined)
  Vaccinia mCherry: -5%; Vaccinia Venus: -4%
Cc1ccccc1-n1c(=S)[nH]c2nc3c(cc2c1=O)COC(C)(C)C3
  Vaccinia mCherry: -7%; Vaccinia Venus: -6%

Outcome played no part in choosing rows; overall some 0.88% were active at least once.
